HSV replic up: enhancers of HSV replication in host cells, fold increase, host cell viability; HSV replication augmentation in cells; maximum fold increase; 220,000 tested, 0.005% active;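 active = peak rise of 1.5-fold or more in the series; inconclusive = self-fluorescent or not available for retest; tested in PC3 cells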;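 note: first round at 10 µM; read as green reporter fluorescence; hits show the peak of a series up to 25 µM; 1 = signal of infected wells without compound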
PKD1 inh: inhibitors of human PKD1 kinase, biochemical, fluorescence polarization; Serine/threonine-protein kinase D1 (Homo sapiens), Q15139; PKD1 kinase fluorescence polarization assay; inhibition, %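 (about 10 µM by stock and volumes)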; 200,000 tested, 0.056% active; AID 797, 2007;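 active = inhibition of 50% or more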;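 note: controls were vehicle for no effect and a reference inhibitor for full effect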
GALR2 ag: GALR2 receptor agonists, primary screen, cell-based. 140,000 tested, 0.48% active. GALR2-expressing cells, agonist activation read-out. Galanin receptor type 2 (Homo sapiens), O43603. AID 803, 2007. activation, %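 (tested at 5 µM)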;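 active = above mean plus 3 SD of all compounds, about 5% in these data, not always enough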;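 note: 0% = vehicle buffer wells and 100% = reference agonist at full effect; tested in CHO reporter cells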
Target sequence (O43603 whole entry, looked up): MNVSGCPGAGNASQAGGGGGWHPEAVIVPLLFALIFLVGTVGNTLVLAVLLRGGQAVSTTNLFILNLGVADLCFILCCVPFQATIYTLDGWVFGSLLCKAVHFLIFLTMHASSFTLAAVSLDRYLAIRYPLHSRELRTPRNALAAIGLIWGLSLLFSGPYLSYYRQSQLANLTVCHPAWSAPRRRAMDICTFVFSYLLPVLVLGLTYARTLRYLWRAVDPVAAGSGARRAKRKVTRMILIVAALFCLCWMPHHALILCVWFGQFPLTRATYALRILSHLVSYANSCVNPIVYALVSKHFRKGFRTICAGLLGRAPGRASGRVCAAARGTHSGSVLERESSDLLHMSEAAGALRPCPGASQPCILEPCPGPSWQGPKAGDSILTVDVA
RGS16-Gao HTS: modulators of RGS16 binding to Galphao, primary screen, biochemical, human proteins, multiplexed bead flow cytometry. Regulator of G-protein signaling 16 (Homo sapiens) + Guanine nucleotide-binding protein …. bead-based flow cytometry RGS16-Galphao binding, fluorescence; actives lie on both sides. binding response (% of control), % at 10 µM. 220,000 tested, 0.38% active;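 active = below 25% or above 175%, edge rows of some plates excepted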;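 note: Galphao activated by GDP with aluminum fluoride before binding; 100% = wells without compound and 0% = beads without RGS; some results beyond the cut were filed as inactive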
Target sequence (O15492 whole entry, looked up): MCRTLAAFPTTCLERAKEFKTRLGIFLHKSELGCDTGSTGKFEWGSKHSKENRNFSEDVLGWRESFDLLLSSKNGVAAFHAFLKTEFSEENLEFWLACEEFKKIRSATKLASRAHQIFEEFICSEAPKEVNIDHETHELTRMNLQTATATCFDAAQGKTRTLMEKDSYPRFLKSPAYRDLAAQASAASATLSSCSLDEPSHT
Target sequence (P09471 whole entry, looked up): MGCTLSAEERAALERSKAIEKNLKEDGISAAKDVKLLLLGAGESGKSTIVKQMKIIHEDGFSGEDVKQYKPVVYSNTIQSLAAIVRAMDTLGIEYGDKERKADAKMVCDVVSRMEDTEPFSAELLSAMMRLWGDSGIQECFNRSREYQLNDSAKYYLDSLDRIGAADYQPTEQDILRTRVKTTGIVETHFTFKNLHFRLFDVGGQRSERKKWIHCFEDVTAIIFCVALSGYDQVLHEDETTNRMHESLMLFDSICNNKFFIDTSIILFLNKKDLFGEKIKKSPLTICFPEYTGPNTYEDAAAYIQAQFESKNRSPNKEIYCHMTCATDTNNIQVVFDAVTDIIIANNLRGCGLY
Insulin prom inh: inhibitors of insulin promoter-driven GFP, primary screen, imaging, TRM-6 cells (human fetal islet line), eGFP reporter, cell count. reporter expression induced with tamoxifen. inhibition, % at 2 µM. 130,000 tested, 0.9% active;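 active = inhibition above the mean plus 3 SD, with well images judged a real hit on visual review, cut at about 60% in these data, passing the limit was not always enough; inconclusive = inhibition over the cutoff but images rejected on review; inactive = inhibition not above the cutoff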
Insulin prom inh cell count: also measured in Insulin prom inh; calls as there; normalized cell count, %; measured here: cell count, toxicity; reference of the scale not given here;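 cells exposed to compound for 48 h; stained nuclei by imaging scaled within each plate; lower means fewer cells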
HSV replic up primary fold: further read-out of HSV replic up, marked with its call; fold increase; compound at 10 µM; measured here: primary screen fold increase 10 uM; tested in PC3 cells;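 GFP signal in the first replicate; 1 = infected wells without compound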
Numbers without * were called inactive; i = inactive; ? = inconclusive; · = not tested or not shown.

SMILES	HSV replic up	HSV replic up primary fold	PKD1 inh	GALR2 ag	RGS16-Gao HTS	Insulin prom inh	Insulin prom inh cell count
CCN1C(=O)/C(=C\N(C(C)=O)c2ccccc2)OC1=S	i	0.75	-8	-0.7	103	71	88
CN(C)CCCN(Cc1ccccc1)C(=S)Nc1ccc(OC(F)F)cc1	i	0.99	-7	-0.5	103	·	·
C=CCNC(=S)N/N=C/c1ccc(N(CC)Cc2ccccc2)cc1	i	1	-5	0.5	108	-36	89
COC1CCCCC1Nc1cccc(SC)c1 (stereo unspecified)	i	0.89	-4	0.2	102	19	189
CC(CCc1ccccc1)NC(=O)C1CCN(S(=O)(=O)N2CCOCC2)CC1 (stereo unspecified)	i	0.99	-3	-0.2	165	-106	98
Cc1cccc(C(=O)NC(NCc2ccco2)C(Cl)(Cl)Cl)c1 (stereo unspecified)	i	0.89	-5	-2.7	42	·	·
O=C(C(=O)N1CCCc2ccccc21)c1c[nH]c2ccccc12	i	0.93	-16	-0.9	70	-212	1
COc1ccc2cc3cc(C(=O)NCCc4ccc(OC)c(OC)c4)oc3nc2c1	·	·	-7	-0.8	102	-9	97
CC(C)N1CCN(Cc2ccoc2)CC1CCO (stereo unspecified)	i	0.97	3	·	203	·	·
CCOC(=O)Cc1csc(NC(NC(=O)CC)(C(F)(F)F)C(F)(F)F)n1	i	1.1	5	-0.1	103	·	·
COc1ccc(-c2noc(CN3CCCCC3)n2)cc1OC	i	0.69	7	-1.6	100	23	51
Cn1c2c(c(=O)n(C)c1=O)C(c1cccc(Br)c1)C1C(=O)c3ccccc3C1=N2 (stereo unspecified)	·	·	-2	0.8	·	-37	111
O=C(Nc1ccc(-c2nc3ncccc3o2)cc1)c1ccco1	i	1	-1	0.5	97	-64	40
CCOc1ccc(CN(CCO)CCO)cc1[N+](=O)[O-]	i	1.1	-17	-1.6	100	6	111
O=C(CS(=O)(=O)c1cccc(C(F)(F)F)c1)Nc1ccccc1Cl	i	0.85	4	-2.6	108	-10	81
CCCCCCC(=O)N/N=C/c1ccco1	i	0.82	3	-2.7	102	53	130
Cc1ccc(Cl)c(NC(=O)COC(=O)CNS(=O)(=O)/C=C/c2ccccc2)c1Cl	i	0.96	3	-0.6	107	-7	138
Cc1ccc(-n2c(N)c(C(=O)Nc3c(C)n(C)n(-c4ccccc4)c3=O)c3nc4ccccc4nc32)cc1C	?	·	-6	0.7	106	·	·
CCn1c(=O)cc(OCC(=O)NCCc2cccc(C)c2)c2ccccc21	i	0.93	-11	·	84	-129	135
CCOc1ccc(C(=O)CN2CCN(S(=O)(=O)c3ccc(Br)cc3)CC2)cc1	i	0.93	-9	3.0	109	14	37

Looked up above:
Insulin prom inh with `CCn1c(=O)cc(OCC(=O)NCCc2cccc(C)c2)c2ccccc21` : -129
HSV replic up primary fold with `COc1ccc(-c2noc(CN3CCCCC3)n2)cc1OC` : 0.69

Next section.
SMILES	HSV replic up	HSV replic up primary fold	PKD1 inh	GALR2 ag	RGS16-Gao HTS	Insulin prom inh	Insulin prom inh cell count
CCc1ccccc1-n1nnnc1-c1cnccc1C(F)(F)F	i	1	·	·	102	·	·
C=C(C)CN(CC)C(=O)CCc1nnc(CCc2c[nH]c3ccccc23)o1	i	0.9	-1	·	103	·	·
CCOC(=O)Cc1cnc(NC(=O)Cn2nnc(-c3ccc(OCC)cc3)n2)s1	i	0.89	-3	0.5	100	-42	130
Clc1ccccc1/C=C/c1nc(-c2ccccn2)no1	i	0.82	·	·	97	·	·
O=S(=O)(c1cccc2ccccc12)n1nnc2ccccc21	i	1.2	6	94*	103	17	97
COc1cccc(NC(=O)CN(c2ccc3c(c2)OCO3)S(C)(=O)=O)c1	i	0.93	-12	·	98	45	104
COc1ccc(CCNC(=O)COc2ccc(N(C)S(=O)(=O)c3ccc(Cl)cc3)cc2)cc1	i	1	-1	·	102	·	·
O=S(=O)(c1ccc(S(=O)(=O)N2CCCC2)cc1)N1CCCCCC1	i	0.72	-2	-3.2	114	·	·
Cc1cc(C)n(-c2nc3ccccc3n3cnnc23)n1	i	0.98	-1	-3.4	73	21	107
S=C(NCCOCCOCCNC(=S)Nc1ccccc1)Nc1ccccc1	i	1.1	6	·	100	·	·
Cc1ccccc1NC(=O)Cn1c(=O)n(-c2ccc(CC(=O)NCC3CCCO3)cc2)c(=O)c2ccccc21 (stereo unspecified)	i	0.98	4	·	143	42	90
Cc1ccc(S(=O)(=O)n2ccnc2)cc1C	i	0.79	-16	·	103	·	·
COc1ccc(Cn2nnnc2C(c2ccccn2)N2CCN(c3cc(Cl)ccc3C)CC2)cc1 (stereo unspecified)	i	0.88	-3	-0.7	99	-48	122
Cc1nn2cc(-c3ccccc3)nc2[nH]c1=O	i	0.93	-14	-0.7	99	-22	78
Cc1ccc(N2CCN(C(=O)Nc3cccc([N+](=O)[O-])c3)CC2C)cc1 (stereo unspecified)	i	0.96	0	·	100	-11	90
COc1cccc(/C(C)=N/NC(=O)c2cc(-c3cccnc3)nc3ccccc23)c1	i	0.77	2	-0.7	99	27	75
C=CCCC1(C)C(=O)N(c2ccccc2)c2ccccc21 (stereo unspecified)	i	0.75	-7	0.1	97	·	·
N#Cc1nc(-c2ccc(OCc3ccccc3)cc2)oc1NCCN1CCOCC1	·	·	1	-0.8	104	17	135
Cc1ccc(-n2c(=S)[nH]c3nc4c(cc3c2=O)COC(C)(C)C4)cc1	i	0.84	-2	0.7	100	·	·
Cc1c(N2C(=O)c3cccc4cccc(c34)C2=O)c(=O)n(-c2ccccc2)n1C	i	1	1	-2.9	102	69*	40*
COc1ccc(C2CC(C(F)(F)F)n3ncc(C(=O)O)c3N2)cc1OC (stereo unspecified)	i	0.98	-5	-2.5	53	-17	128
C/C(CC(=O)Nc1ccc(Cl)cc1Cl)=N\NC(N)=S	i	0.97	1	-1.3	101	45	64
CC1Cc2ccccc2N1C(=S)NC(=O)c1ccc(Cl)cc1Cl (stereo unspecified)	i	1	-4	-0.6	106	9	115
CCC(Oc1ccccc1)C(=O)N1CCN(CC)CC1 (stereo unspecified)	i	1	-6	-0.6	101	0	46
Nc1nc(C2CC2)c(Sc2sc(N)nc2C2CC2)s1	i	0.8	9	-3.7	68	57	91
CCOC(=O)c1ccc(NC(=O)C2(c3ccc(OC)cc3)CCCC2)cc1	i	1.1	19	-3.1	108	14	104
CC(C)CCN1NC2(CCCC(C)C2)NC1=S (stereo unspecified)	i	1.2	·	·	105	·	·
O=C(CNC(=O)OCc1ccccc1)NC1CCCCCC1	i	1	-7	·	104	·	·
CC(C)Cn1c(-c2ccc(Cl)cc2)cnc1SCC(=O)N1CCOCC1	i	1	8	21*	100	·	·
c1ccc(CC2CCN(c3ncnc4sccc34)CC2)cc1	i	1.1	-3	·	100	·	·
CCCc1[nH]nc2c1C(c1cccnc1)C(C#N)=C(N)O2 (stereo unspecified)	i	0.91	1	0.4	96	64	54
Cc1ccc(OCC(=O)Nc2ccc(O)c(-c3nc4ccccc4o3)c2)cc1	·	·	-5	-0.1	101	6	119
CCCNC(=O)Nc1ccc2c(c1)nc(C)n2C	i	0.88	-3	-2.6	127	-53	118
O=C(CCc1ccccc1)NC(=S)Nc1cccc(Br)c1	i	0.92	2	1.5	106	26	118
CC(C)CC1NC(=O)N(CC(=O)N2CCN(S(=O)(=O)c3ccccc3)CC2)C1=O (stereo unspecified)	i	1	-5	-3.3	103	51	96
CCCn1c(SCc2nc(-c3cccs3)no2)nnc1-c1ccncc1	i	1	-7	-0.8	97	-411	39
CC(=O)Nc1nc(=O)c2ccccc2s1	i	1.2	3	-0.1	98	·	·
CCC(=O)Nc1c(S(=O)(=O)c2ccccc2)c2nc3ccccc3nc2n1C(C)c1ccccc1 (stereo unspecified)	i	0.8	-6	2.9	106	-17	170
CC(C)c1ccccc1OCCNC(=O)c1cccnc1	i	1.1	-1	·	106	40	68
COCCn1c(=S)[nH]c2cc(C(=O)NC(C)C)ccc2c1=O	i	0.82	0	-0.3	93	30	71
CN(c1ccccc1)S(=O)(=O)c1ccc(Cl)c(C(=O)NCCc2c[nH]c3ccccc23)c1	i	0.88	-5	0.2	171	-48	68
COC(=O)c1ccccc1NC(=O)C1CCN(S(=O)(=O)c2cc(C)ccc2OC)CC1	i	0.97	-7	-1.7	104	10	98
O=C(OCC(=O)c1ccc[nH]1)c1ccc2ccccc2n1	i	0.94	6	·	95	·	·
CC(O)[C@H]1CN=C(N)N1CCCCC1CCCCC1 (stereo partly specified)	i	1	·	·	92	·	·
O=C1COc2ccc(C(=O)CSc3nnc(NCc4ccccc4)s3)cc2N1	i	0.86	·	·	101	·	·
O=C(O)CCc1nc2cc3ccccc3cc2[nH]1	i	0.96	-3	·	125	-8	99
COCCn1c(SCC(=O)Nc2nnc(C)s2)nnc1-c1cc2ccccc2cc1O	i	0.72	-5	-2.7	99	·	·
Cn1c(=O)[nH]c(=O)c2c1nc(CN1CCOCC1)n2CCCc1ccccc1	i	0.95	-12	-0.7	104	-20	55
COC(=O)c1ccccc1N1CCS(=O)(=O)CC1	i	0.87	-3	·	100	-95	147
O=C(O)CCC(=O)Nc1ccc(N2CCCCCC2)cc1	·	·	5	-0.8	102	37	143

Arranged by the number under PKD1 inh (descending): 5 of the compounds above
mol | PKD1 inh
O=C(O)CCC(=O)Nc1ccc(N2CCCCCC2)cc1 | 5
O=C(O)CCc1nc2cc3ccccc3cc2[nH]1 | -3
CN(c1ccccc1)S(=O)(=O)c1ccc(Cl)c(C(=O)NCCc2c[nH]c3ccccc23)c1 | -5
COC(=O)c1ccccc1NC(=O)C1CCN(S(=O)(=O)c2cc(C)ccc2OC)CC1 | -7
Cn1c(=O)[nH]c(=O)c2c1nc(CN1CCOCC1)n2CCCc1ccccc1 | -12

Next section
SMILES	HSV replic up	HSV replic up primary fold	PKD1 inh	GALR2 ag	RGS16-Gao HTS	Insulin prom inh	Insulin prom inh cell count
C/C(=N\NC(=O)c1ccc(NS(=O)(=O)c2cccs2)cc1)c1ccc(Cl)cc1	i	0.97	-1	-0.4	145	36	132
COc1ccc(C(=O)Nc2cc(OC)c(Cl)cc2OC)cc1	i	0.96	11	·	71	-18	117
CCOC(=O)C(NC(=O)Nc1ccc(F)cc1)(OCC)C(F)(F)F (stereo unspecified)	i	1	-5	0.8	103	-17	108
CCCOCc1ccc(O)c2ncccc12	i	0.67	·	·	100	·	·
O=C(COc1ncnc2sccc12)N1CCc2ccccc2C1	i	0.95	-14	-3.1	55	10	75
CCc1nnc(NC(=O)CSc2nc3cc4c(cc3cc2CC)OCCO4)s1	i	0.9	-8	-1.5	99	-11	95
COC(=O)Nc1ncc(CN2CCc3ccccc3C2)s1	i	0.69	-6	-2.8	104	23	27
COc1ccc(OCC(=O)NC(=S)N2CCCc3ccccc32)cc1	i	1	-3	-2.6	94	-7	62
O=C(NCC(=O)N(Cc1cccs1)C(C(=O)NC1CCCCC1)c1cccnc1)c1ccco1 (stereo unspecified)	i	0.97	2	-0.6	107	-123	104
CCOC(=O)c1c(N)nn(C(=O)CC)c1-c1ccccc1	i	0.9	1	-0.9	105	71	123

Record cards, as listed above. Order of screens: HSV replic up	HSV replic up primary fold	PKD1 inh	GALR2 ag	RGS16-Gao HTS	Insulin prom inh	Insulin prom inh cell count
Listed for `CCOC(=O)c1c(N)nn(C(=O)CC)c1-c1ccccc1` → i	0.9	1	-0.9	105	71	123
Listed for `COc1ccc(OCC(=O)NC(=S)N2CCCc3ccccc32)cc1` → i	1	-3	-2.6	94	-7	62

(list continues)
SMILES	HSV replic up	HSV replic up primary fold	PKD1 inh	GALR2 ag	RGS16-Gao HTS	Insulin prom inh	Insulin prom inh cell count
CCCOC(=O)C1C2C=CC3(CN(c4cccc(Cl)c4)C(=O)C13)O2 (stereo unspecified)	i	0.99	-2	-2.3	90	·	·
O=C(Nc1cccnc1Cl)C1c2ccccc2Oc2ccccc21	?	·	8	-4.0	103	11	79
CN(C)C(=O)CSc1n[nH]c(=O)[nH]c1=O	i	0.99	2	·	105	·	·
Cc1cc2cc(C)c3nnc(SCC(=O)N4CCN(C(=O)c5ccco5)CC4)n3c2cc1C	i	0.87	-8	1.7	·	-12	252
Cc1ccc(N=C2CCCCCN2C)c(C#N)c1	i	0.76	-1	-1.3	106	-171	107
C=C(C)CSc1nc2ncc(Cl)cc2[nH]1	i	0.88	0	0.0	106	52	183
